Bioassay records deposited in PubChem BioAssay by Broad Institute.
MLL AF4-AF9 inh: inhibitors of human MLL-AF4/AF9 interaction | P42568 | AlphaScreen, biotin-AF4 peptide binding to FLAG-AF9 | inhibition, % at 10 µM | 0.47% of 350,000 active | AID 651704;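 active = every replicate reaching a set inhibition limit, whatever the replicate mean, cut at about 25% in these data; inconclusive = mean inhibition reaches that limit but some replicates miss it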;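 note: 0% = plate neutral control median and 100% = total signal loss; the record names both 10 and 1 µM as test concentration; the first replicate is given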
Target sequence (P42568 whole entry, looked up): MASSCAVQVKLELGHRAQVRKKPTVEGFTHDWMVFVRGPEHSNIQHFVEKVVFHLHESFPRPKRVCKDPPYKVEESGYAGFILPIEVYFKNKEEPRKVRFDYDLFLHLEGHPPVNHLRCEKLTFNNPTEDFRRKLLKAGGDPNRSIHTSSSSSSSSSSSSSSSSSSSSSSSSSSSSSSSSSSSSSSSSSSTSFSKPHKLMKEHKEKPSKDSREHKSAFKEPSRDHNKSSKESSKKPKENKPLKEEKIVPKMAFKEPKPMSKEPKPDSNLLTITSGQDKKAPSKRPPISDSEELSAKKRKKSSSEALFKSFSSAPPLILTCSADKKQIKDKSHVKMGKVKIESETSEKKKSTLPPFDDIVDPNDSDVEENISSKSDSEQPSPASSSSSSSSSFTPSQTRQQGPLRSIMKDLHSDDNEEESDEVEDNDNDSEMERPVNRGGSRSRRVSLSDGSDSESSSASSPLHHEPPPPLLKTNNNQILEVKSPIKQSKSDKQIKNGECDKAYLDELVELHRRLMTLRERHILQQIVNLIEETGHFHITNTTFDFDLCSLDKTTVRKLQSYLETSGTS
ALR H2O2 inh: human ALR oxidase inhibition via reduced H2O2; 3.8% of 290,000 active; inhibition, % (concentration not given with the values); purified ALR, DTT oxidation, H2O2 HRP-luminol luminescence; AID 485317; P55789;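 active = mean and each replicate at 75% or more; inconclusive = only one of the two met; inactive = neither met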;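 note: stock transfer was 7.5 nL into about 7.5 µL; 0% = neutral wells and 100% = wells with inactivated enzyme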
Target sequence (P55789 whole entry, looked up): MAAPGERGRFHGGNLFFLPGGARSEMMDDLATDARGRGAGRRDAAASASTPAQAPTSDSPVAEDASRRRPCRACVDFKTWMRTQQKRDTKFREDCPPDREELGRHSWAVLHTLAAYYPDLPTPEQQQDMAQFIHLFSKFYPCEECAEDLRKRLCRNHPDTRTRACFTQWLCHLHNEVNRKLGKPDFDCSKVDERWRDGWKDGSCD
Calb FLC: affects C. albicans growth with fluconazole | growth inhibition, % (test concentration not listed) | C. albicans CaCi-2 (fluconazole-resistant clinical isolate) + fluconazole, Alamar Blue growth, 48 h | 0.57% of 300,000 active;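 active = most replicates above 75%; inconclusive = exactly half above 75%; inactive = most below 75%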;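 note: all wells also contain fluconazole at 8 µg/ml as a sub-toxic cotreatment; 0% = median of DMSO wells and 100% = median of geldanamycin control wells; wells of about 8 µL received 7.5 nL stock; the first replicate is given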
rRNA inh HTS: inhibitors of bacterial rRNA selective over humanized ribosomes; E. coli WT GFP vs humanized-ribosome RFP mutants, fluorescence, 24 h; hits give low values; DMSO median 0, no signal -100; GFP signal change (wild-type ribosome), % (test concentration not listed); 1.6% of 350,000 active; AID 720706;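 active = significant combined selectivity score with lowered wild-type GFP, culture density cut under 30%, mutant RFP and density less affected; inactive = any of these conditions unmet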; note: one replicate is shown; some compounds called inactive have numbers as strong as hits
T cruzi repl: blocks replication of Trypanosoma cruzi; T. cruzi beta-gal in NIH3T3, luminescence, 90 h; inhibition, % (test concentration not listed); 1.4% of 300,000 active;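 active = mean inhibition across valid replicates above about 55%, limit read from the data; inconclusive = mean below that limit but half or more replicates reach it; inactive = mean below it, under half of replicates reach it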;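 note: signal also drops with host cell toxicity which is not excluded here; 0% = plate median of DMSO wells and 100% = zero luminescence signal; higher percent means less beta-gal luminescence so fewer parasites; stock transfer was 50 nL into about 50 µL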
Beta cell apopt: beta cell apoptosis inhibition | INS-1E cytokine-induced death, ATP luminescence, 48 h; percent of positive-control rescue, neutral wells zero | protection from apoptosis, % (no concentration beside the values) | 0.8% of 300,000 active;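 active = all replicates at 75% or more, or half of them and the mean; inconclusive = half reach 75% but not the mean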;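 note: 0% = cytokine-treated negative control wells and 100% = positive control rescue; higher means more ATP so stronger rescue from cytokine killing; wells of about 40 µL received 100 nL stock; the first replicate is given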
FGF22 binding: FGF22 (human) thermal shift binding. Q9HCT0. recombinant FGF22 thermal shift, SYPRO orange fluorescence; percent of sucrose octasulfate shift, DMSO zero. calls only at 9.99 µM. AID 651658. 1.5% of 340,000 active;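 active = melting point raised past a set limit in the mean and every replicate; inconclusive = no clear call; three in four hits are not shown here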
Target sequence (Q9HCT0 whole entry, looked up): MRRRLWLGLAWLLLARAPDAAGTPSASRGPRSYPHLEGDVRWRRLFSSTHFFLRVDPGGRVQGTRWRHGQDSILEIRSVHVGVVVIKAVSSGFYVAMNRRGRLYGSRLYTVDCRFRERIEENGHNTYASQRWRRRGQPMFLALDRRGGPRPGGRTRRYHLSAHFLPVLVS
RanGTP-Impb inh: inhibitors of RanGTP-importin-beta interaction, primary screen, biochemical, FRET, CFP-Ran, YFP-importin-beta, homogeneous | cell-free CFP-Ran/YFP-importin-beta FRET ratio | inhibition, % (test concentration not listed) | 1.1% of 300,000 active;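 active = most replicates above 15%; inconclusive = exactly half above 15%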;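 note: 0% = DMSO wells and 100% = Ran loaded with GDP instead of GTP; wells of about 40 µL received 100 nL stock; the first replicate is given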
rRNA inh HTS OD600: further read-out of rRNA inh HTS, marked with its call; OD600 change, %; measured here: OD600 growth;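 optical density of the mix in the first replicate; 0 = DMSO median and -100 = no signal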
rRNA inh HTS RFP: second read-out of rRNA inh HTS, no call of its own (marks repeat the call); RFP signal change, %; measured here: RFP humanized mutant strains;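 first replicate; 0 = DMSO median and -100 = no signal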
Active calls of the source: *; i = inactive; u = inconclusive; x = not tested or not shown; & = joins results of further samples. These rows are one share of the data, so the mix of outcomes need not match the whole.

SMILES	MLL AF4-AF9 inh	ALR H2O2 inh	Calb FLC	rRNA inh HTS	rRNA inh HTS OD600	rRNA inh HTS RFP	T cruzi repl	Beta cell apopt	FGF22 binding	RanGTP-Impb inh
COC(=O)c1cccc(C23CC4(C2)[C@H](CN(Cc2ccc(C(F)(F)F)cc2)[C@@H]4c2ccccc2)C3c2ccc(Cl)nc2)c1 (stereo not given in full)	2.4	-10.5	-8.6	8.1	4.7	-4.5	-4.3	4.8	i	5.6
Cn1cnnc1SCCn1c(N2CCCCC2)nc2c1c(=O)[nH]c(=O)n2C	x	-8.2	6.7	x	x	x	-9.2	-1.8	x	2.5
Cc1ccc(C(=O)O)cc1NC(=S)NC(=O)C(c1ccccc1)c1ccccc1	x	u	-1.0	x	x	x	-12.1	1.6	x	2.5
CCOC(=O)N1CCN(C(=O)c2ccc(-n3c(=S)[nH]c4ccccc4c3=O)cc2)CC1	x	-2.9	-14.8	x	x	x	-3.9	x	x	-2.2
Cc1nn(Cc2ccccc2)c2c1C(c1ccccc1)C(C#N)=C(N)O2 (stereo not given)	x	16.0	3.1	x	x	x	-5.7	1.3	x	-5.0
O=[N+]([O-])c1nn(-c2ccc(Cl)cc2)n(O)c1=NCc1ccccc1Cl	x	x	-8.0	1.9	3.6	2.7	-14.4	3.7	i	3.8
CCC(C)C(NS(=O)(=O)c1ccc(C)cc1)C(=O)N1CCOCCOCCOCC1 (stereo not given)	1.9	-5.5	-4.5	-1.1	3.8	-2.7	7.9	x	i	-0.9
O=C(CSc1nnc(NC(=O)C2CC(=O)N(c3ccccc3)C2)s1)NCc1ccco1 (stereo not given)	0.9	23.6	-1.4	-0.8	4.6	-0.3	-6.4	2.8	i	-1.9
Cc1cccc(OCC(=O)Nc2ccc3c(c2)nc(CCN2CCN(C)CC2)n3C)c1	x	x	33.7	x	x	x	9.7	-1.7	x	-1.9
O=C(O)c1cc(-c2ccccc2)nn1CC1CC(c2cccc([N+](=O)[O-])c2)=NO1 (stereo not given)	-17.7	1.9	5.4	3.8	6.1	1.0	-7.4	2.3	i	3.4
Cc1c(NC(=O)c2cc3ccccc3o2)c(=O)n(-c2ccccc2)n1C	x	0.4	-12.4	x	x	x	-7.6	-3.5	x	5.1
O=C(CC1C(=O)NCCN1Cc1ccc(-c2ccccc2)cc1)NCC1CCOCC1 (stereo not given)	3.0	-16.7	-6.8	-1.1	-1.4	-0.7	4.2	-5.7	i	0.9
Nn1c(COc2cccc(Br)c2)nnc1SCC(=O)N1CCc2ccccc2C1	x	x	2.5	x	x	x	12.6	0.3	x	1.9
Cc1ccc(C)c(Cn2nnc3c(=O)[nH]c(C4CCCN(C(=O)c5ccco5)C4)nc32)c1 (stereo not given)	-16.3	-4.0	13.4	-2.3	-16.5	1.6	14.2	10.2	i	-3.5
CCN(CC(O)Cn1c2ccccc2c2ccccc21)S(=O)(=O)c1ccc(F)cc1 (stereo not given)	x	0.7	20.3	x	x	x	-4.1	4.0	x	x
CCn1c(SCc2ccc(Cl)cc2Cl)nc2nc3c(cc2c1=O)CCCC3	x	38.5	-8.5	x	x	x	30.6	-3.2	x	0.8
COc1ccc(-c2nnc(SCC(=O)Nc3ncc(C)s3)n2-c2ccccc2)cc1OC	x	-4.1	41.6	x	x	x	12.4	-1.2	x	1.5
COCCn1c(Cc2ccccc2)nnc1SCc1ccc([N+](=O)[O-])cc1	3.4	-7.8	-5.4	x	x	x	3.7	-4.3	i	-1.1
Fc1ccc(Oc2nc(-c3ccccc3)nnc2C(F)(F)F)cc1	x	x	-0.6	x	x	x	-31.2	0.3	x	-2.0
CN(Cc1cccc(Cl)c1Cl)C(=O)c1ccc(NC(=O)CC#N)cc1	-2.9	x	21.6	x	x	x	-27.6	-10.3	i	2.5
CN(Cc1c(C(=O)N(C)Cc2ccccc2)nc2ccccn12)CC1Cc2ccccc2O1 (stereo not given)	-1.8	-4.7	-5.2	x	x	x	21.8	0.3	i	u
CCn1c(=O)cc(OCC(=O)NCc2cccnc2)c2ccccc21	x	-6.9	7.5	x	x	x	-0.5	-7.7	x	-1.1
COc1cccc(-n2c(C)nc3c(cnn3-c3ccc(C)cc3)c2=O)c1	x	0.0	2.2	x	x	x	-5.5	5.6	x	-0.8
C1=Cc2ccccc2Nc2ccccc21	3.8	41.5	20.5	6.9	8.6	-5.1	54.2	-1.7	i	7.0
CCOc1ccc(S(=O)(=O)NCCC(=O)N2CCN(c3ccc(OC)cc3)CC2)cc1	-0.7	76.5*	29.9	-1.8	8.2	-4.4	-0.4	-1.7	i	-3.8
O=c1c2c(-c3ccccc3)ccnc2[nH]n1-c1ccccc1	1.6	17.8	5.6	2.4	6.9	-1.2	4.2	9.4	i	-4.1
Cc1ccc(S(=O)(=O)Nc2ccccc2F)cc1C(=O)NNC(=O)c1ccccc1O	-1.0	5.8	69.1	-12.8	-12.1	-3.5	6.2	-4.3	i	4.5
Cc1cccc(N2N=C(C(=O)Nc3ccc(Cl)c(S(=O)(=O)N4CCOCC4)c3)CCC2=O)c1	2.3	-1.2	x	-7.5	-4.3	-0.7	x	1.5	i	x
O=c1[nH]c(=S)[nH]c2sccc12	-7.2	97.3*	-1.7	6.4	22.9	-8.7	-22.8	-6.8	i	2.6
COCCNC(=O)c1c(N)n(-c2cccc(C)c2)c2nc3ccccc3nc12	x	15.7	4.4	x	x	x	8.6	-8.0	x	97.4*
C[C@H](CO)N1C[C@H](C)[C@@H](CN(C)Cc2ccccc2)Oc2ccc(NC(=O)Cn3cnnn3)cc2C1=O	-0.5&0.5	0.7	x	8.3&9.4	16.9&11.9	-1.1&1.0	x	-3.8	i	x
Cc1[nH]nc2c1C(c1ccsc1)C(C#N)=C(N)O2 (stereo not given)	x	1.1	-3.1	x	x	x	-17.0	-4.3	x	4.7
COc1cccc(OCc2cc(C(=O)N(C)Cc3nc(C)cs3)no2)c1	-7.4	-15.8	-4.2	-5.4	-11.7	-0.8	3.7	x	i	-1.6
O=C(CCCC1=NS(=O)(=O)c2ccccc2N1)N1CCN(c2ccc(Cl)cc2)CC1	-11.8	95.9*	-4.1	-0.9	4.2	-2.1	1.5	4.6	i	-0.1
CCOc1ccc(N(C)S(=O)(=O)c2csc(C(N)=O)c2)cc1	4.5	-21.1	1.1	8.6	-0.2	-0.6	-6.8	-6.2	i	2.8
C[C@H](CO)N1C[C@H](C)[C@@H](CN(C)C(=O)NC2CCCCC2)Oc2ccc(NC(=O)Nc3ccccc3)cc2C1=O	-0.7&-1.6	-1.7	x	4.5&4.4	5.4&2.2	-1.7&-2.8	x	3.5	i	x
COc1ccc(CCN2C(=O)C(C)=C(C)C2=O)cc1OC	1.1	-28.2	18.3	4.1	3.4	-2.0	4.3	-2.4	i	-6.6
Cc1cc(C(=O)OCC(=O)N2CCOCC2)c(C)n1-c1ccccc1	-1.0	-13.3	x	10.6	9.6	1.3	x	-0.5	i	x
O=C1CCSc2ccc(Cl)cc2N1Cc1ccc(Cl)cc1	x	-3.9	9.3	x	x	x	0.1	3.8	x	0.5
O=C(Cn1ncc2c1-c1ccccc1OC2)N1CCN(Cc2ccc3c(c2)OCO3)CC1	-0.1	-14.5	2.9	-2.2	-5.5	-1.4	20.6	-6.2	i	3.9
CCCCNC(=O)C1CCC(CNS(=O)(=O)c2ccc(NC(C)=O)cc2)CC1 (stereo not given)	x	-2.6	-2.5	x	x	x	-12.6	-6.8	x	-3.4
NNC(=O)C(Cc1cnc[nH]1)NC(=O)OCc1ccccc1 (stereo not given)	-4.3	11.1	3.9	6.0	3.1	-3.9	-1.0	x	i	1.6
CC(=O)Nc1cccc(NCC(=O)Nc2cc(S(=O)(=O)N3CCCCC3)ccc2Cl)c1	0.5	-8.7	x	-13.0	-25.2	9.9	x	9.1	i	x
COC(=O)c1cccc(NC(=O)CSc2nc(=O)cc(N)n2-c2ccccc2)c1	x	98.4*	5.4	x	x	x	-10.4	-3.9	x	-2.3
COc1ccc(/C=C/c2ccncc2)cc1	x	-8.3	-28.0	x	x	x	73.7*	-1.2	x	4.2
CSc1nsc(SCC(=O)Nc2cccc(C(=O)O)c2)n1	-8.2	6.9	16.1	-2.0	-1.2	-2.7	-9.4	7.8	i	-0.8
COC(=O)c1cc(NC(=O)c2cccc(C(F)(F)F)c2)c(=O)oc1C/C=N/OCc1cccc(Cl)c1Cl	x	8.9	11.6	x	x	x	-9.4	-2.8	x	-2.5
O=C(N/N=C/c1ccc([N+](=O)[O-])cc1)c1[nH]ncc1Br	-0.4	0.6	-17.3	21.4	19.8	-0.1	-2.9	1.8	i	-5.0
COC(=O)c1cnc(Oc2ccc(NC(=O)NC(=O)c3ccccc3Cl)cc2)cc1C(F)(F)F	5.0	-3.1	-8.0	2.9	9.3	0.6	-6.1	4.2	i	-2.1
O=Cc1ccccc1OCc1ccc2c(c1)OCO2	-1.5	-8.7	-15.5	10.2	6.6	0.5	-10.7	x	i	1.8
Later entries.
SMILES	MLL AF4-AF9 inh	ALR H2O2 inh	Calb FLC	rRNA inh HTS	rRNA inh HTS OD600	rRNA inh HTS RFP	T cruzi repl	Beta cell apopt	FGF22 binding	RanGTP-Impb inh
CSc1ccc(S(=O)(=O)Nc2ccc3c(c2)NC(=O)CC3)cc1	-0.9	-2.6	1.2	-28.9	-35.3	-2.3	1.8	x	i	2.4
Cc1ccc(S(=O)(=O)Nc2cc(C(=O)Nc3cc(C)cc(C)c3)ccc2Cl)cc1	x	-0.8	70.1	x	x	x	8.7	x	x	2.3
CC(NC(=O)CSc1nnc(COc2ccccc2)o1)c1ccccc1 (stereo not given)	x	-10.9	0.6	-5.6	-10.7	-5.6	-6.0	-11.7	x	-5.2
CCOc1ccccc1NC(=O)N1CCC(c2nc3ccc(C)cc3[nH]2)CC1	x	-5.0	-18.6	x	x	x	26.2	2.0	x	-1.3
CCCN1CCN(C(c2cc3cc(OCC)ccc3[nH]c2=O)c2nnnn2C2CCCCC2)CC1 (stereo not given)	x	-2.9	1.4	x	x	x	-4.6	-0.9	x	1.3
Cc1ccc(-c2cc(C(=O)NCC(c3ccccc3)N(C)C)c3ccccc3n2)o1 (stereo not given)	3.8	-5.1	x	1.2	7.7	-1.2	x	0.8	i	x
COc1ccc(C2C(C#N)=C(N)Oc3cc(O)ccc32)cc1C (stereo not given)	6.2	x	16.7	-19.3	-29.4	1.3	4.1	2.1	x	67.1*
CCC(=Nc1ccccc1O)C1=C(O)CC(c2ccccc2)CC1=O (stereo not given)	x	56.4	2.5	-8.9	0.3	5.2	-32.1	-6.7	i	2.2
CC(C)(C)NC(=O)NC(=O)COC(=O)CCC1CCCCC1	x	-2.6	2.5	x	x	x	-7.6	-7.0	x	-0.9
C#C[C@]1(O)CC[C@H]2[C@@H]3CCC4=C(CCC(=O)C4)[C@H]3CC[C@@]21C	2.2	-2.4	x	0.4	-15.0	2.5	-1.2	-4.8	i	-2.6
COc1cc2c(cc1OC)-c1cc(Nc3cccc(F)c3)nc(=O)n1CC2	6.9	x	4.5	5.5	-2.6	1.4	21.4	x	i	-1.1
